Compound activity as filed in PubChem.
PrP UTR inh – inhibition of PrP 5' UTR reporter expression; actives 0.35% (n = 340,000); inhibition, % (concentration not given with the values); cell-based PrP 5' UTR mRNA reporter, plate reader; AID 488862;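 active = every replicate at 50% or more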;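 note: 0 = median of the neutral control wells; tested in H4 reporter cells; numbers are from one replicate; inactives centre near -14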
BJeLR lethal – BJeLR cell viability loss; BJeLR (HRASV12) viability, CellTiter-Glo ATP luminescence, 48 h; reference of the scale not given here; inhibition, % (test concentration not listed); actives 0.17% (n = 300,000);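 active = replicate mean above 50%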;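 note: 50 nL library stock added to about 25 µL; numbers are from one replicate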
Sa RN4220 lethal – S. aureus RN4220 growth inhibition; OD600, 16 h; inhibition, % (concentration not given with the values); actives 0.33% (n = 330,000);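 active = z-score of -3 or lower and OD600 up to 0.18 on both plates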;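 note: plate controls were untreated cells for no effect and reference antibiotic for full effect; stock transfer was 100 nL into about 80 µL; one replicate is shown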
Bead autofluor – flagged as autofluorescent in microsphere protease counterscreen; fluorescence intensity (concentration not given with the values); compound autofluorescence counterscreen, microsphere flow cytometry; hits give high values; actives 3.1% (n = 360,000); AID 624483;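 active = at least 3 SD above the mean of all compounds, about 16000 in these data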;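 note: 100 nL of 1 mM stock went into each well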
ugtP null kill – kills S. aureus RN4220 lacking UgtP | S. aureus RN4220 ugtP deletion, OD600 growth, 16 h; some inactives read as strong as hits | growth inhibition, % (test concentration not listed) | actives 0.54% (n = 330,000) | AID 1259309;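 active = z-score under -3 and OD600 up to 0.15 on both plates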;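 note: plate controls were untreated wells for no effect and antibiotic for full effect; wells of about 80 µL received 100 nL stock; the first replicate is given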
Mtb hypoxia rep – reduces hypoxia-regulated biosensor signal in M. tuberculosis; M. tuberculosis hypoxia-regulated fluorescent reporter, fluorescence; fluorescence inhibition, % (no concentration beside the values); actives 0.1% (n = 300,000); AID 1159583;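 active = 35 to 45% if threefold the growth effect, above 45% if 1.5-fold the growth effect; inactive = the rest, general growth blockers included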;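 note: wells of about 50 µL received 100 nL stock; 0% = vehicle wells and 100% = reference inhibitor wells; whole bacteria with a GFP reporter of the hypoxia response; strong numbers were not always called active; many hits fall short of the cut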
Mtb hypoxia rep growth – further read-out of Mtb hypoxia rep, marked with its call; growth inhibition, %; measured here: M. tuberculosis growth (absorbance);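 0% = vehicle and 100% = reference antibiotic; read after six days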
* hit, by the source's call; / = not tested or not shown.

SMILES	PrP UTR inh	BJeLR lethal	Sa RN4220 lethal	Bead autofluor	ugtP null kill	Mtb hypoxia rep	Mtb hypoxia rep growth
O=C(CN1CCN(C(=O)c2ccccc2)CC1)Nc1ccc(Cl)cc1F	-5	-1	0.1	3822	6	-5	14
CCN(C(C)=O)c1cccc2ccccc12	-4	0	3.4	4927	7	/	/
CCCC1=C(C(=O)OCC)C2(C(=O)Nc3ccccc32)C(C#N)=C(N)O1 (configuration not stated)	13	-4	32	22790*	10	-7	-2
COc1ccc(S(=O)(=O)N(C)C)cc1NC(=O)[C@H](Cc1ccccc1)N1C(=O)c2ccccc2C1=O	1	3	4.7	9981	1	0	3
COc1cc(/C=N/OCC(=O)Nc2ccc(OC(F)F)cc2)ccc1OCc1ccccc1	-23	5	/	11554	/	/	/
CCOC(=O)Cc1ccc(NC(=O)c2ccccc2Br)cc1	-14	-1	1.9	4349	6	5	15
COc1ccc(NC2=NCC(=O)N2Cc2cccs2)cc1	5	-7	-5.3	3085	0	19	7
Cc1ccc(NC(=O)CN(C)S(=O)(=O)c2cccc3cccnc23)c(C)c1	-18	0	0.9	4169	5	4	0
COc1ccc(-c2nc(CS(=O)CC(=O)NCc3ccc(Cl)cc3)c(C)o2)cc1 (configuration not stated)	-4	-7	21	4431	8	0	-2
COc1ccc(-c2cc(C(=O)NCC(c3ccccc3)N(C)C)c3ccccc3n2)cc1OC (configuration not stated)	2	9	-1.2	4142	6	6	-4
O=C(NC1CCCCC1)c1ccc(-c2ccccc2)cc1	-73	4	2.1	6720	-6	14	-5
Cc1ccc(C2(C)NC(=O)N(CC(=O)Nc3ccc(N4CCOCC4)cc3N3CCOCC3)C2=O)cc1 (configuration not stated)	-16	-4	/	5829	/	/	/
Cc1ccc(CNC(=O)Cn2c(=O)n(-c3ccccc3)c(=O)c3sccc32)cc1	2	1	-0.5	3462	2	8	6
Oc1ccc(Br)cc1C1Nc2ccccc2S1 (configuration not stated)	-30	-4	0.8	3800	19	6	7
COc1cc(C(=O)OCc2ccccc2C#N)ccc1OCC(=O)N1CCOCC1	-23	/	0.1	3766	-2	0	5
Cc1ccc(CNCC(O)(c2ccccc2)c2ccc(F)cc2)cc1 (configuration not stated)	-18	6	-1.2	10625	-8	-5	-7
CCC(c1nnnn1CCOC)N1CCN(Cc2ccccc2OC)CC1 (configuration not stated)	2	3	0.6	2997	2	/	/
O=CC1=C(N2CCOCC2)/C(=C\c2ccccc2)CC1	-4	-8	-0.4	3240	-16	-3	19
Cc1cc(N2C(=O)C3C4CC(C(Br)C4Br)C3C2=O)no1 (configuration not stated)	-28	1	5.4	9559	17	10	13
Cn1c(SCC(=O)N2CCc3ccccc32)nnc1C1CC1	4	2	3.0	4560	-1	/	/
C[C@]12CCC3C(CCC4=CC(=NOCC(=O)NC(CCC(=O)O)C(=O)O)CC[C@@]43C)C1CCC2O (some centres not stated)	/	/	3.7	/	12	1	-2
CC1CCc2nc(NCCO)nc(C(F)(F)F)c2C1 (configuration not stated)	-15	-2	6.0	9165	-1	5	7
O=C(N/N=C/c1cccnc1)/C(=C\c1cccs1)NC(=O)c1ccccc1	-29	-7	/	2015	/	/	/
CCCN(CC(=O)Nc1ccccc1OC)C(=O)CSc1nc(C)cc(C)n1	-43	-9	-1.7	7179	3	-5	4
CCOc1cccc(C2C(C(=O)c3ccc(C)o3)=C(O)C(=O)N2CCCn2ccnc2)c1 (configuration not stated)	-8	2	3.9	3919	6	6	0

(next part)
SMILES	PrP UTR inh	BJeLR lethal	Sa RN4220 lethal	Bead autofluor	ugtP null kill	Mtb hypoxia rep	Mtb hypoxia rep growth
C=CCCC(=O)N1CCC(n2nccc2NC(=O)c2ccc(OC)cc2)CC1	-13	13	3.8	4304	9	-4	-9
Cc1ccc(C(=O)N2CCN(c3ccc(Cl)cc3)CC2)cc1	-16	0	-1.4	3231	2	/	/
O=C(COC(=O)C1CCC(=O)N1)Nc1ccc(Br)cc1 (configuration not stated)	-16	-2	2.3	2571	-2	6	5
CCOC(=O)N1CCN(C(=O)c2cccc(NC3=NC4CS(=O)(=O)CC4S3)c2)CC1 (configuration not stated)	-16	-11	1.7	15816	4	1	-6
CC1CN(C(=O)Nc2cccc(C(F)(F)F)c2)CC(C)O1 (configuration not stated)	-4	0	-2.0	3484	-6	10	12
Cc1nc(C(=O)NCC(=O)c2ccccc2)c(C(F)(F)F)o1	-11	-4	1.2	6163	-9	2	10
Cn1c(=O)n(C)c2cc(/C=N/NC(=O)c3cc4cc(Br)ccc4o3)ccc21	-12	-3	/	6015	/	/	/
COCCCNC(=S)Nc1ccc(C)cc1	-14	-3	1.0	4925	7	-1	6
Cn1cnc([N+](=O)[O-])c1S(=O)(=O)c1cccc(Cl)c1	-4	3	12	2615	9	/	/
COc1ccc(/C=C(\C#N)C(=O)Nc2cccc(C)n2)cc1	-6	-2	-1.3	3381	-2	12	7
CC1(C)COC(c2cccn2Cc2ccc(F)cc2Cl)=N1	1	-2	3.0	3726	7	0	5
CCOC(=O)C1=CN(Cc2cccc(F)c2)S(=O)(=O)N(CC)C1c1cccc(OC)c1 (configuration not stated)	-13	/	3.8	3843	2	3	2
Cc1ccc(C(=O)Nc2ncc(C)s2)o1	-25	5	3.7	11025	0	5	6
CN1CCN(c2ccc(C(F)(F)F)cc2NC(=O)Nc2ccccc2)CC1	-4	2	-5.3	3859	-11	8	27
O=C(CSCc1ccccc1)Nc1ccc2c(c1)C(=O)NC2=O	-34	-4	6.2	3896	7	-5	-7
CCCn1c2ccccc2c2cnn(CC(=O)NCCN(CC)CC)c(=O)c21	-17	3	0.6	3305	4	1	-5
CC1(C)OC(=O)C(=Cc2ccc[nH]2)C(=O)O1	-10	4	-0.1	4225	1	-2	-3
CCCCSc1cnn(-c2ccccc2)c(=O)c1SCCCC	-9	-2	-3.1	4162	65	-1	-1
O=C(NCc1nnc(SCC(=O)N2CCC(Cc3ccccc3)CC2)o1)c1ccco1	-4	-16	-1.7	5071	2	10	7
O=C(NC1CCCCC1)C(c1cccnc1)N(C(=O)CCl)c1ccccc1Cl (configuration not stated)	-14	1	1.7	2741	2	6	-4
CCOC(=O)c1sc(NC(=O)CSc2n[nH]c(CC)n2)nc1C	-30	3	4.8	3665	-12	-8	-4
N#Cc1ccccc1NC(=O)CN1C(=O)NC(Cc2c[nH]c3ccccc23)C1=O (configuration not stated)	-37	/	2.9	3506	1	10	5
Cc1ccc(CCNC(=O)C2CCN(S(=O)(=O)c3cccc4nonc34)CC2)cc1	17	7	0.8	1918	-2	/	/
O=C(Nc1ccc(N2CCOCC2)cc1)c1cc(-n2cnnc2)ccc1Cl	2	6	-1.2	5190	-2	-4	-7
O=C(COc1cccnc1[N+](=O)[O-])c1ccc(Cl)s1	-13	-8	9.2	4554	3	15	3

Next section
SMILES	PrP UTR inh	BJeLR lethal	Sa RN4220 lethal	Bead autofluor	ugtP null kill	Mtb hypoxia rep	Mtb hypoxia rep growth
CCOc1ccc(CN2CCN(CCCc3ccccc3)CC2CCO)cc1 (configuration not stated)	6	-6	0.6	/	0	18	5
COc1ccc(C(=O)O/N=C(\N)Cc2ccc([N+](=O)[O-])cc2)c(OC)c1	-12	1	4.3	4276	6	14	2
CC1CCN(S(=O)(=O)c2ccc(Cl)cc2Br)CC1	-4	2	4.3	4390	0	6	-2
COc1ccc(CCn2c(O)c(C=NCCCO)c(=O)[nH]c2=O)cc1OC	7	-6	-1.2	3393	5	-2	6
[O-]/[N+](=C\c1ccc(F)cc1)c1ccccc1	-40	1	-0.9	10676	2	22	18
Cc1ccc(S(=O)(=O)N2CCOCC2)cc1NCC(=O)Nc1ccc(OC(F)(F)F)cc1	-7	/	5.3	4122	10	18	12
CN1CCCC(OC(=O)c2ccc(S(=O)(=O)N(C)C)cc2)C1 (configuration not stated)	-15	-6	2.3	3370	8	9	5
CC1=C(C(=O)OCC2CCCO2)C(c2ccccc2)NC(=O)N1 (configuration not stated)	-25	2	3.8	10805	7	16	4
O=C(CNC(=O)c1cccnc1)N/N=C/c1ccc(O)cc1O	4	3	/	3269	/	/	/
Cc1noc(C)c1COc1ccc(C(=O)NCCc2ccccn2)cc1	-2	6	-0.6	4175	3	8	-1
CC(=O)N/C(=N/c1nc(C)cc(C)n1)Nc1ccc(F)cc1F	-7	9	2.9	3643	5	7	6
O=C(OCc1nnc(-c2ccccc2)o1)c1cc(S(=O)(=O)N2CCOCC2)c(Cl)cc1Cl	12	5	4.9	3459	-4	19	14
CNC(=O)CSc1nnc(C2CC2)n1-c1ccccc1	-13	-26	0.6	3314	1	3	-3
Nn1c(=O)c2ccccc2n2c(SCc3ccccc3)nnc12	-2	-1	-2.3	3009	-3	13	13
COC(=O)C1C(c2ccccc2)NC(=O)NC1(O)C(F)(F)Cl (configuration not stated)	-16	1	-0.4	4296	6	-2	7
O=C(Nc1ccccc1)NC1CCN(Cc2ccccc2)CC1	-20	-11	4.3	2308	4	14	15
O=c1cc(CNCCCO)c2ccccc2[nH]1	-21	10	-0.3	2612	-1	/	/
CCCn1c(CN2CCN(C)CC2)nc2ccccc21	-22	/	2.2	10671	0	-3	2
COc1cccc(NC(=O)c2ccc3c(c2)CCCC3)c1	-97	12	1.6	5888	-7	-2	7
COC(=O)CN(c1cc(C(F)(F)F)ccc1Cl)S(C)(=O)=O	-6	-2	3.1	10291	6	6	8
O=P(O)(O)COc1ccccc1P(=O)(c1ccccc1)c1ccccc1	-14	-12	4.6	4314	-2	8	13
COc1cc(CN2CCN(C(=O)COc3ccccc3)CC2)cc(OC)c1OC	6	-4	0.0	2745	3	/	/
CCSc1nnc(NC(=O)Cc2cccc(OC)c2)s1	-26	12	-1.9	3242	2	/	/
COc1ccc(-c2nnc(NC(=O)C3=COCCO3)o2)cc1	-16	-4	1.8	2446	0	7	-2
C=CCN1C(=O)c2ccc(C(=O)N3CCN(S(=O)(=O)c4cccc(F)c4)CC3)cc2C1=O	-12	-1	0.7	4043	2	-2	0

Other entries.
SMILES	PrP UTR inh	BJeLR lethal	Sa RN4220 lethal	Bead autofluor	ugtP null kill	Mtb hypoxia rep	Mtb hypoxia rep growth
O=C(N1CCCC1)C12CC3CCC(CC(C3)C1)C2	-5	6	7.8	4356	10	10	13
O/N=C(/CCc1ccccc1)c1ccc2c(c1)OCCO2	-81	-2	/	3231	/	/	/
Cc1cc(N2CCN(C(c3ccccc3)c3ccccc3)CC2)n2ncnc2n1	-30	1	-4.9	3541	15	-74	-13
CN(C)c1nc(N/N=C/c2c[nH]c3ccccc23)nc(N2CCOCC2)n1	-6	6	/	3417	/	/	/
Cc1ccc([C@H]2C(C(=O)O)=CC[C@@H](c3ccc(C(C)C)cc3)N2S(=O)(=O)c2ccc(C)cc2)cc1	-9	/	18	3717	-11	0	-2
COc1cccc(C(C(=O)NC(C)(C)C)N(CCC(C)C)C(=O)CCC(=O)Nc2cc(C)on2)c1OC (configuration not stated)	-18	7	-3.5	4119	-10	-1	13
Cc1c(C(=O)Nc2cccc(Cl)c2)c2ccccn2c1CCc1ccncc1	-10	3	-9.8	2325	-16	-2	-2
COCn1c(COc2ccccc2)nc2ccccc21	-46	14	5.6	9000	10	5	12
O=C(N/N=C/c1c[nH]c2ccccc12)c1cc(-c2ccccc2)n[nH]1	-12	-6	/	2654	/	/	/
CCOc1cccc(/C(O)=C2/C(=O)C(=O)N(CCOC)C2c2ccco2)c1 (configuration not stated)	-23	2	6.0	3104	3	7	11
O=C(NCC1CCCO1)c1cccc(NC(=O)c2ccco2)c1 (configuration not stated)	8	5	5.5	4373	4	/	/
